# Screening results from PubChem.
# TRPML1 inh – qHTS for Inhibitors of the Human Mucolipin Transient Receptor Potential 1 (TRPML1); Mucolipin-1 (Homo sapiens), Q9GZU1; TRPML1-inducible cells, Ca2+ dye fluorescence, FDSS; active compounds read low; inhibition of EC80 agonist-evoked calcium signal; activity change, negative = inhibition, % (test concentration not listed); 390,000 compounds, 0.02% hits; in the data active means activity change below about -50%; inconclusive means about -30% to -50%; inactive means above about -30%;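 also: stimulus is agonist 54-4 at its EC80 concentration; % is scaled to controls: 0 for no effect and ±100 for the full control effect; compound concentration not given in the record; the text of the record puts the active cut at -80%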
# Target sequence (Q9GZU1 whole entry, looked up): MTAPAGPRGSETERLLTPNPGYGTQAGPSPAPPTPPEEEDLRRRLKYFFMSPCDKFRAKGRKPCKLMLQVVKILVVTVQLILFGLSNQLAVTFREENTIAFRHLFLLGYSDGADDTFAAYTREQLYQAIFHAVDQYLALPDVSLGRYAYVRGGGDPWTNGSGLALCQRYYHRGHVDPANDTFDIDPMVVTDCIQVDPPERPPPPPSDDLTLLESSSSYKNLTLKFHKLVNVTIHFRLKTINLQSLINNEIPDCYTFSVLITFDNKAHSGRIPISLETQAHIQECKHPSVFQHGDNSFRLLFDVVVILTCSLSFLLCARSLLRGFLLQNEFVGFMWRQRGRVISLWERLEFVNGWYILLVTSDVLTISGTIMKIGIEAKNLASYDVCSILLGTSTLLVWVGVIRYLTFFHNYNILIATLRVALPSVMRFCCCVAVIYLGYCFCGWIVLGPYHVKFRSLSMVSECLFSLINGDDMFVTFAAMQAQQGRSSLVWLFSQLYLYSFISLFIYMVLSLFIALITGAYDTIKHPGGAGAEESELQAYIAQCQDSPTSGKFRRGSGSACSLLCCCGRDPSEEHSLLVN
#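 TRPML1-DL cells, Tet-induced overnight (~16 h, 37 °C) at 1,500 cells/well, were loaded with Ca8 no-wash dye plus quencher for 45-90 min at room temperature. Compounds were pinned during FDSS kinetic reading; agonist 54-4 at EC80 (4 uM final) then added.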
# TRPV1 potentiator – HTS Assay for Compounds that Act as Potentiators of the Vanilloid Receptor 1; Transient receptor potential cation channel subfamily V member 1 (Homo sapiens), Q8NER1; TRPV1-expressing cells, Fluo-8 calcium influx, capsaicin EC20 potentiation; host cell line not named in the record; control for the full effect not named in the record; potentiation, % at 8.33 µM; 320,000 compounds, 0.02% hits; AID 540277, 2011; active means potentiation above 80%; inconclusive means 30% to 80%; inactive means below 30%; also: 0% is about no effect
#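 TRPV1-expressing cells were cultured overnight at 35.5C and loaded with Fluo-8 calcium dye for 40 to 90 min at room temperature. After a 10 s baseline, compound was added and calcium influx was read kinetically for 3 min (ex 480/em 520 nm).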
# D2 PAM – Beta-Arrestin HTS for Positive Allosteric Modulators of the Human D2 Dopamine Receptor: Potentiators | AID 624464, 2012 | potentiation, % (concentration not given with the values) | DiscoveRx D2 beta-arrestin cells, luminescence, 90 min; 100% = 57 uM dopamine signal | D(2) dopamine receptor (Homo sapiens), P14416 | 360,000 compounds, 0.23% hits; active = potentiation of 50% or more; inconclusive = 30% to 50%; inactive = 30% or less;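 also: tested on top of an EC20 dose of dopamine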
# Target sequence (P14416 whole entry, looked up): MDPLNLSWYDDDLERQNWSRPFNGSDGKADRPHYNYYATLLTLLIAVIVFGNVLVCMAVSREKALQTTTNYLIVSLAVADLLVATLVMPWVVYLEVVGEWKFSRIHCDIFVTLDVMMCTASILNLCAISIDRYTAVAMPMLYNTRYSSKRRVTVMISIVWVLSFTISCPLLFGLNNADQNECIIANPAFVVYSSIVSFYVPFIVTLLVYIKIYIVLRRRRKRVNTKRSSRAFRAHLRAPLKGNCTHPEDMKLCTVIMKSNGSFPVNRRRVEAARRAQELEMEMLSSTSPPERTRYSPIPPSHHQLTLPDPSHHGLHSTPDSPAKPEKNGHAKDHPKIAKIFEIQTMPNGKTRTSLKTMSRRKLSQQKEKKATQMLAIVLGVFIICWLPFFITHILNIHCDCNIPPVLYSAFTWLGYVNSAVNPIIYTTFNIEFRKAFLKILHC
#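 PathHunter beta-arrestin assay in DiscoveRx D2 cells. Compounds were added with an EC20 of dopamine (50 nM final) for 90 min at 37 deg C. Luminescence was read 1 h after detection reagent, with 57 uM dopamine as the EC100 control.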
# CtBP-E1A blk – qHTS Assay for Inhibitors of the CtBP/E1A Interaction. 340,000 compounds, 0.49% hits. CtBP / adenovirus E1A interaction (AlphaScreen). AlphaScreen GST-E1A/His-CtBP binding, 1536-well; active compounds read low; control for the full effect not named in the record. activity change, % (no concentration beside the values); in the data active means activity change below about -65%; inconclusive means about -30% to -65%; inactive means above about -30%; also: % is scaled to controls: 0 for no effect and ±100 for the full control effect
#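 AlphaScreen with 125 nM GST-E1A and 125 nM His-CtBP (5X stocks) in Tris pH 8.0, 300 mM NaCl, BSA, Tween 20, TCEP. Compounds preincubated 2 h at 37 deg C, then glutathione donor/nickel acceptor beads added for 1 h at 37 deg C in dark.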
# Six1-Eya2 inh – qHTS Assay for Inhibitors of the Six1/Eya2 Interaction; Homeobox protein SIX1 (Homo sapiens) + Protein phosphatase EYA2 (Homo sapiens), …; AlphaScreen GST-Six1/His-Eya2 binding, biochemical; active compounds read low; control for the full effect not named in the record; activity change, % (concentration not given with the values); 360,000 compounds, 0.56% hits; AID 651725, 2012; in the data active = activity change below about -65%; inconclusive = about -30% to -65%; inactive = above about -30%; also: % is scaled to controls: 0 for no effect and ±100 for the full control effect
#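 GST-Six1 + His-Eya2 (5X stock: 250/500 nM); Tris pH 8.0, 300 mM NaCl, 0.05% BSA, 0.02% Tween 20; GSH donor/Ni acceptor beads; 1 h 37 °C dark; AlphaScreen readout.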
# TRPML1 agonist – qHTS for Agonists of the Human Mucolipin Transient Receptor Potential 1 (TRPML1) | Mucolipin-1 (Homo sapiens), Q9GZU1 | TRPML1-expressing cells, Ca2+ dye fluorescence, FDSS; host cell line not named in the record; reference of the full effect not given here | activation, % (test concentration not listed) | 410,000 compounds, 0.12% hits; in the data active = activation above about 50%; inconclusive = about 30% to 50%; inactive = below about 30%; also: 0% is about no effect; the text of the record puts the active cut at 80%
#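 Tet-induced TRPML1-DL cells, 1,500 per well, cultured overnight, were loaded with a no-wash Ca2+ dye for 45–90 min. Calcium fluorescence was recorded on the FDSS for 110 s after compound addition, before the EC80 agonist (4 uM 54-4) was added.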
# The depositor's hits bear a star; ? = inconclusive; . = no result given; & = joins results of further samples. Outcome played no part in choosing rows; any-hit rate near 0.95%.
Structure	TRPML1 inh	TRPV1 potentiator	D2 PAM	CtBP-E1A blk	Six1-Eya2 inh	TRPML1 agonist
CCCC(C)NC(=S)Nc1cc(C)cc(C)c1 (stereo not drawn)	-1	-13	-22	2	-2	-0.2
CN(C)CCCNc1oc(/C=C/c2ccccc2)nc1C#N	24	?	-2	8	2	0.2
CC1CCc2c(sc3nc(SCC(=O)NCc4ccco4)nc(N)c23)C1 (stereo not drawn)	12	-1	22	-15	-21	0.3
COc1cc(OC)cc(-c2c(C#Cc3ccsc3)c3cc(-c4ccc(CN5CCOCC5)cc4)ccc3n2C)c1	3	.	-4	-8	-5	-0.2
CC(=O)c1c(C)[nH]c(C(=O)Nc2nccs2)c1C	-17	-1	2	-7	-25	1.0
COC(=O)c1cnc(Oc2c(Cl)cc(N)cc2Cl)cc1C(F)(F)F	-7	-3	-5	10	2	-0.1
O=c1cc(Nc2ccc3c(c2)OCCO3)[nH]c(=O)n1C1CCCCC1	16	-4	-9	-4	-5	-0.2
CC(=O)C1=C(C)NC(SCC(=O)c2ccc(F)cc2)=C(C#N)C1c1ccco1 (stereo not drawn)	-12	?	-8	3	0	-0.4
Oc1c(Br)cc(Br)cc1/C=N/c1nc2c(s1)CCCC2	-10	.	-14	-1	-3	1.8
COc1ccc(C(=O)CSc2n[nH]c(N)n2)cc1	-19	2	-3	-2	4	1.6
CSc1ncc(C(=O)Nc2ccc(Cl)cc2)c(C)n1	14	-20	-4	6	5	0.3
CCCCNc1nc2cccnc2s1	10	?	2	.	4	0.9
Cc1ccc(N2C(=O)C(CN(C)C)C2c2ccccc2)cc1 (stereo not drawn)	5	1	-1	1	0	-0.7
Cc1nc(Cl)sc1C(=O)Nc1cccc(C(F)(F)F)c1	-9	.	-1	5	-6	-0.6
O=c1cc(CN2CCN(S(=O)(=O)c3ccccc3[N+](=O)[O-])CC2)nc2sccn12	-4	4	1	9	4	-0.1
Cc1ccc(S(=O)(=O)NCc2ccccc2)cc1C(=O)NCCc1ccc(S(N)(=O)=O)cc1	2	3	-1	6	3	0.5
CCOC(=O)C(Cc1ccccc1)NC(=O)CCc1nnc2ccc(N3CCOCC3)nn12 (stereo not drawn)	-8	-16	-2	-1	2	-0.5
CC1CC(C)CN(S(=O)(=O)c2ccc3c(c2)CCN3C(=O)CCC(=O)O)C1 (stereo not drawn)	-8	4	-9	0	9	-0.1
Cc1ccc(C2=NCCn3nc4cc(C(F)(F)F)ccc4c32)cc1	-2	-11	-7	-9	-12	-1.2
C[C@@H]1CN([C@@H](C)CO)C(=O)CCCn2nncc2CO[C@@H]1CN(C)S(=O)(=O)c1cccc(F)c1	-19	.	-2	-13	-7	0.5
O=C(CN(Cc1ccccc1)C(=O)c1csnn1)NCc1ccccc1	-11	0	-3	0	5	-1.0
O=C(CSc1nnc(SCc2ccccc2)s1)NNC(=S)Nc1ccccc1	-9	6	-42	2	0	0.5
COCCCn1nnnc1SCC(=O)Nc1nc2ccccc2s1	1	2	-4	-1	4	-0.3
CCOC(=O)c1c(C)[nH]c(C(=O)NNC(=O)c2ccc(Br)cc2)c1C	-3	8	-8	.	-2	0.9
O=[N+]([O-])c1cc(C(F)(F)F)ccc1Sc1ccccn1	-23	-25	-11	24	-22	0.4
Cc1cccc(/C(N)=N/OC(=O)c2ccc3c(c2)OCO3)c1	-3	-2	57*	9	-4	-0.1
O=C1Nc2ccccc2C12OCCCO2	-3	1	-3	10	4	-0.4
O=c1[nH]c(C(F)(F)F)nc2c1nnn2Cc1ccccc1F	-4	9	27	0	0	-0.7
COCCNc1ncnc2c1cnn2-c1ccc(Cl)cc1	-15	-8	-13	-23	-5	0.0
O=C(CCSc1ccccc1)Nc1ncccn1	18	-5	-1	5	5	0.3
CCN(CC)c1ccc(/C=N/N=C(N)N)c(O)c1	34	10	-9	?	-24	3.6
COc1ccc(OC)c(-n2nnnc2SCC(=O)Nc2nc(C)c(C)s2)c1	2	5	-5	3	-2	-0.6
O=C1CC(c2ccccc2)NC(=O)N1 (stereo not drawn)	6	9	-7	5	7	0.0
CCOC(=O)c1ccc(NC(C)=O)c([N+](=O)[O-])c1	2	?	1	-3	-12	0.4
O=C(c1cc(Cl)ccc1[N+](=O)[O-])n1cnc2ccccc21	-10	-13	26	10	7	-0.6
CCOc1cc2[nH]c(=O)n(CCCCC(=O)NCc3ccco3)c(=O)c2cc1OCC	2	7	9	-11	2	0.8
CCN(CC)CCP(=O)(c1ccccc1)c1ccccc1	3	-3	-3	5	7	0.3
O=C(NCCc1ccccc1)[C@@H]1CC=C[C@@H]2CCN(Cc3ccccc3)C(=O)[C@@H]21	40	.	-8	-9	-1	0.6&-1.2
CCC(=O)Oc1cccc(C(=O)Nc2ccc(-c3nnc(-c4ccco4)o3)cc2)c1	26	.	8	-27	-24	-0.5
COCCNC(=O)CN1C(=O)COc2ccc(Cl)cc21	-1	-16	-6	6	0	0.1

# 5 entries drawn at random from the list so far:
Structure	TRPML1 inh	TRPV1 potentiator	D2 PAM	CtBP-E1A blk	Six1-Eya2 inh	TRPML1 agonist
CCN(CC)CCP(=O)(c1ccccc1)c1ccccc1	3	-3	-3	5	7	0.3
CCC(=O)Oc1cccc(C(=O)Nc2ccc(-c3nnc(-c4ccco4)o3)cc2)c1	26	.	8	-27	-24	-0.5
CC(=O)C1=C(C)NC(SCC(=O)c2ccc(F)cc2)=C(C#N)C1c1ccco1 (stereo not drawn)	-12	?	-8	3	0	-0.4
CCCCNc1nc2cccnc2s1	10	?	2	.	4	0.9
O=c1cc(Nc2ccc3c(c2)OCCO3)[nH]c(=O)n1C1CCCCC1	16	-4	-9	-4	-5	-0.2

# The list goes on:
Structure	TRPML1 inh	TRPV1 potentiator	D2 PAM	CtBP-E1A blk	Six1-Eya2 inh	TRPML1 agonist
COc1ccc(Cl)cc1N(C(=O)c1ccco1)C(C(=O)NC1CCCC1)c1ccncc1 (stereo not drawn)	-12	0	-3	5	5	1.5
O=C(CN1CCN(c2nc(-c3ccc(Cl)cc3)cs2)CC1)NCc1ccco1	5	9	0	0	-5	0.1
CC(C)[C@H]1COCCS(=O)(=O)N1Cc1ccc(Cl)cc1	6	1	-6	0	27	1.6&0.1
COc1ccc(C2c3c(ncn(CCCO)c3=N)Oc3ccc4ccccc4c32)cc1OC (stereo not drawn)	-14	-13	-9	-14	-10	0.3
CCOC(=O)c1[nH]c2ccc(OC)cc2c1NC(=S)N1CCN(C(=O)OCC)CC1	-14	-5	1	.	-4	0.5
Cc1ccc(C2(C)NC(=O)N(CC(=O)N3CCN(S(=O)(=O)c4cccc(F)c4)CC3)C2=O)cc1 (stereo not drawn)	24	15	5	-9	-5	1.0
O=C(C1=C[C@@H](C2CCCCC2)C[C@@H](OCc2ccc(CO)cc2)O1)N1CCN(Cc2ccccc2)CC1	21	-5	-10	-9	-19	-0.7
CC(=O)Nc1ccc(C(=O)NNC(=O)C2CC2)cc1	5	23	-5	8	7	-0.7
Nc1ccc(-n2nnnc2-c2ccco2)cc1	-7	3	3	3	1	-0.6
O=C(NNC(=O)c1ccc2ccccc2c1)c1ccc(Cl)c(Cl)c1	20	.	-2	0	0	0.0
Cc1ccc(C)c(N2CCN(c3ccc([N+](=O)[O-])cn3)CC2)c1	68	-7	-4	-7	-2	3.1
Fc1ccc([C@@H]2CCNC[C@H]2COc2ccc3c(c2)OCO3)cc1	-12&-2&16	0	-6&-5&-4	?	?	0.0&0.3&1.0
CCOC(=O)c1c(NC(=O)CN2C(=O)C(=O)N(C(C)C)C2=O)sc(C)c1CC	26	21	-7	.	-13	-1.4
O=C(CCCCCN1C(=O)c2ccccc2C1=O)NCCc1nc2ccccc2[nH]1	-2	.	-14	-2	0	0.8
COC/C=C/C1=CC2=CC(=O)C(C)(OC(=O)c3cnc4ccccc4n3)C(=O)C2=CN1CCN1CCOCC1 (stereo not drawn)	2	-4	14	-6	1	-0.5
CCn1cc(S(=O)(=O)c2ccc(Cl)cc2)c(=O)c2cc(OC)ccc21	35	-3	-6	-9	-1	0.0
CCOc1ccc(CNC(=O)CCCN2C(=O)C(c3ccccc3)Oc3cccnc32)cc1 (stereo not drawn)	-18	-5	-1	6	5	1.5
CC1(C(=O)NC2CCCC2)CCC(=O)N1CCCn1ccnc1 (stereo not drawn)	.	.	-3	7	6	0.0
COc1ccccc1C(=O)NC(=S)NC12CC3CC(CC(C3)C1)C2	5	?	-5	-3	0	-0.3
CC(C)N1CCC1(C)C(=O)Nc1cc(-c2ccccc2)nn1C (stereo not drawn)	.	.	-2	1	2	-0.4
Cc1ccc2[nH]c3nc(N/N=C/c4cccc(O)c4)nnc3c2c1	8	-6	-2	-5	0	0.5
COc1ccc(S(=O)(=O)N(CCC(=O)O)Cc2ccccc2)cc1	38	-5	-2	11	0	-0.7
O=C(Nc1cccc(Cl)c1)C1CCCCC1	3	-18	-18	11	6	-1.1
Cc1nc2ccccc2nc(C)c1=NOCc1cccc(F)c1	-1	-8	-24	0	3	-0.2
CCOc1cccc2cc(C(N)=O)c(=N)oc12	-6	27	-11	-14	-16	-0.5
COc1cccc(CN(CC(=O)NC2CCCCC2)C(=O)c2csnn2)c1	-13	-6	-3	-26	-8	-0.4
C=CCCC(=O)N1CCC(CCC(=O)NC2CC2)CC1	-1	6	-3	-8	4	0.1

# Single records (already shown). Order of values: TRPML1 inh	TRPV1 potentiator	D2 PAM	CtBP-E1A blk	Six1-Eya2 inh	TRPML1 agonist
# C=CCCC(=O)N1CCC(CCC(=O)NC2CC2)CC1 is entered as -1	6	-3	-8	4	0.1
# COc1cccc(CN(CC(=O)NC2CCCCC2)C(=O)c2csnn2)c1 is entered as -13	-6	-3	-26	-8	-0.4
# CCOc1cccc2cc(C(N)=O)c(=N)oc12 is entered as -6	27	-11	-14	-16	-0.5
